Compound activity deposited in PubChem by National Center for Advancing Translational Sciences (NCATS).
2A Renilla = lowers the Renilla signal of an FMDV 2A StopGo reporter; HEK cells with a luciferase reporter of 2A StopGo recoding; Potency, µM (highest dose often 57.5 µM), inactives show at the highest dose signal change, negative = less light; 0.32% of 120,000 active; AID 1745857; active means well fitted falling curve with a large enough effect; inconclusive means small, poorly fitted or top-dose-only effect; inactive means no such curve, though single readings can be large or run the other way; further: nearly all actives have a fitted effect of over 55% in size; overnight with compound
2A firefly = lowers the firefly signal of an FMDV 2A StopGo reporter; HEK cells with a luciferase reporter of 2A StopGo recoding; Potency, µM (top dose mostly 57.5 µM), inactives show at the top dose signal change, negative = less light; 0.23% of 120,000 active; AID 1745856; active = well fitted falling curve with a large enough effect; inconclusive = small, poorly fitted or top-dose-only effect; inactive = no such curve, though single readings can be large or run the other way; further: nearly all actives have a fitted effect of over 60% in size; overnight with compound
The depositor's hits bear a star; u = inconclusive; & = joins results of further samples; [ ] = dose if it differs, or a comment. On the % scale 0 is the no-effect control and ±100 the full control effect; potency means the concentration at half of the fitted maximal effect. Some of the compounds tested; rates above refer to the full screens.

SMILES	2A Renilla	2A firefly
C=CCNc1nc2c(c(=O)n(C)c(=O)n2C)n1Cc1ccc(Cl)cc1	13µM*	14µM*
O=C(O)CCCC(=O)Nc1ccc(-c2nc3ccccc3o2)cc1	-1%	125%[activator]
Cc1oc2cc(OCC(=O)NC(C)(C)C)ccc2c(=O)c1-c1ccc(Cl)cc1	-3%	-1%
CCCNC(=O)NC(=O)CCl	-15%	-6%
Cc1cc(C)c(-c2cc(-c3ccccc3)c3ccccc3n2)cc1C	8%	13%
CN(C)c1ccc(CNC(=O)C2CCN(S(=O)(=O)c3ccc4[nH]c(=O)ccc4c3)CC2)cc1	9%	5%
O=C(NCCc1ccc(F)cc1)C1CCCN(c2ccc3nnc(C(F)(F)F)n3n2)C1 (stereo not given)	0%	3%
Cc1cccc(NC(=O)c2cc3c(=O)n(Cc4cccnc4)ccc3nc2C)c1	-2%	12%
CCCCN(Cc1cc2cc(OC)ccc2[nH]c1=O)C(=O)c1cc(OC)cc(OC)c1	33%[activator]	0%
COc1ccc(Cl)cc1NC(=O)c1c(NCc2cccnc2)sc2c1CCCC2	2%	-4%

Entries of single compounds, looked up by structure. Screens in order: 2A Renilla | 2A firefly
COc1ccc(Cl)cc1NC(=O)c1c(NCc2cccnc2)sc2c1CCCC2 across the screens: 2% | -4%
Cc1cc(C)c(-c2cc(-c3ccccc3)c3ccccc3n2)cc1C across the screens: 8% | 13%
CCCNC(=O)NC(=O)CCl across the screens: -15% | -6%
C=CCNc1nc2c(c(=O)n(C)c(=O)n2C)n1Cc1ccc(Cl)cc1 across the screens: 13µM* | 14µM*
O=C(O)CCCC(=O)Nc1ccc(-c2nc3ccccc3o2)cc1 across the screens: -1% | 125%[activator]

Next part
SMILES	2A Renilla	2A firefly
Cc1csc(N2N=C(c3ccccc3)CC2c2ccc(Cl)cc2)n1 (stereo not given)	6%	2%
CC1CCCC(NC(=O)c2cncc(Br)c2)C1 (stereo not given)	7%	0%
CC(OC(=O)CCOc1ccccc1)C(=O)Nc1ccc(S(N)(=O)=O)cc1 (stereo not given)	-11%	-1%
CC(=O)c1ccc(S(=O)(=O)Nc2ccc(C(=O)NCC(c3ccccc3)N(C)C)cc2)cc1 (stereo not given)	0%	0%
COc1cc(Cl)c(C)cc1NC(=O)NC1COc2ccccc2C1 (stereo not given)	3%	-23%
Cc1cc(Br)ccc1NC(=O)c1ccc(NS(=O)(=O)c2c(C)noc2C)cc1	-3%	u
CCc1cccc(CC)c1NC(=O)C1CCCC1	-7%	u
COC(=O)c1cc(Cl)ccc1OC	-5%	-12%
Cc1cccc(NC(=O)CCn2cnnn2)c1C	-10%	-4%
N#Cc1ccc(Cc2cnc(NC(=O)c3ccsc3)s2)c(C(F)(F)F)c1	u	u
CCc1cccc(C)c1NC(=O)C1CCCN(S(=O)(=O)c2cccc3nsnc23)C1 (stereo not given)	2%	1%
COc1cc(C(=O)N(Cc2nc3nc(C)cc(=O)n3[nH]2)c2ccc(F)cc2)cc(OC)c1OC	12%	3%
O=C(CSc1nnc(-c2ccccc2Cl)o1)N1CCCc2ccccc21	-11%	40%[activator]
O=C(O)CCC(NS(=O)(=O)c1cccc(Cl)c1)C(=O)O (stereo not given)	-11%[1.06 µM]	-3%
CC1(C)Cc2c(sc3ncn4nc(-c5cccc(O)c5)nc4c23)CO1	32%[activator]	0%
COc1cccc(N2C(=O)CSC23C(=O)N(CC(=O)Nc2cccc(Cl)c2)c2ccccc23)c1 (stereo not given)	6%	11%
O=C(Nc1cc(Cl)cc(Cl)c1)c1ccc2c(c1)N(Cc1cccc(Cl)c1)C(=O)c1ccccc1S2=O (stereo not given)	-1%	-8%
Cc1ccc2c(c1)c1c3n2CCN(C(=O)c2ccc(C(F)(F)F)cc2)C3CCC1 (stereo not given)	-11%	-3%
O=c1c2c(-c3ccc(Cl)cc3)ccnc2[nH]n1-c1ccccc1	-16%	-11%
O=C(CCS(=O)(=O)c1nc(-c2cccs2)cc(C(F)(F)F)n1)Nc1ccc(OC(F)(F)F)cc1	-18%	-14%
CCCCN1CC(c2nc3ccccc3n2CCCCOc2ccc(C)c(C)c2)CC1=O (stereo not given)	u	u
NC(=O)CC[C@@H]1NC(=O)[C@H](Cc2ccccc2)NC(=O)[C@H](Cc2ccc(O)cc2)NC(=O)CCSSC[C@@H](C(=O)N2CCC[C@H]2C(=O)N[C@@H](CCCN=C(N)N)C(=O)NCC(N)=O)NC(=O)[C@H](CC(N)=O)NC1=O	-3%	-10%
CC(=O)NC(O)C(O)NC(C)=O (stereo not given)	6%	5%
Cc1ccc(SCC(=O)Nc2ccc3oc(-c4ccccc4C)nc3c2)cc1	11%	156%[activator]
Cc1onc(-c2ccccc2)c1C(=O)Nc1nnc(C(C)(C)C)s1	-2%	-1%
CC1=C(c2ccc(C)cc2)S(=O)(=O)N(Cc2ccc(C(=O)NCc3cccc(C)c3)cc2)C1=O	2%	1%
CC(C)(C)OC(=O)Nc1ccc(C(=O)NCC(c2cccs2)N2CCCC2)cc1 (stereo not given)	-13%	13%
Cc1ccc2c(CN3CCN(c4ccccc4F)CC3)cc(=O)oc2c1	27%	28%
CCCNC(=O)c1cn(-c2ccccc2)nc1-c1cccnc1	37%[activator]	4%
O=C1OCC2=C1C(c1ccc3c(c1)OCO3)CC(=O)N2c1ccc(C(F)(F)F)cc1 (stereo not given)	-10%	-1%
CCSc1ncc(Cl)c(C(=O)N(Cc2ccccc2)c2ccc(OC)cc2)n1	u	-27%
Cc1c(Nc2ncccc2C(=O)O)cccc1C(F)(F)F	-1%	-7%[11.5 µM]
CC(=O)N(Cc1ccco1)CC1C(C)C=C(C)CC1C (stereo not given)	3%	-1%
Cc1ccc(NC(=O)CCNS(=O)(=O)c2ccc3c(c2)CCCC(=O)N3)cc1	20%	3%
CCOc1ccc2c(c1)cc(C(=O)Nc1cccc(OC)c1)n2C	-2%	20%
CC(=O)c1ccc(NC(=O)c2nc(-c3ccc(C)cc3)n3c2CCCCC3)cc1	6%	46%[activator]
Cc1ccc(C(=O)Nc2nc(-c3ccccc3)ns2)cc1	7%	135%[activator]
COc1ccc(Nc2nc3ccccc3nc2NS(=O)(=O)c2ccc(C)c(C)c2)c(OC)c1	25%	6%
O=C(NCc1ccco1)c1cc(-c2ccccc2)nc2ccccc12	37%	54%
CCCOc1ccc(CCN)cc1	-12%	-9%

The last four compounds of the part above come first, to join the parts:
SMILES	2A Renilla	2A firefly
Cc1ccc(C(=O)Nc2nc(-c3ccccc3)ns2)cc1	7%	135%[activator]
COc1ccc(Nc2nc3ccccc3nc2NS(=O)(=O)c2ccc(C)c(C)c2)c(OC)c1	25%	6%
O=C(NCc1ccco1)c1cc(-c2ccccc2)nc2ccccc12	37%	54%
CCCOc1ccc(CCN)cc1	-12%	-9%
Cc1ccc(S(=O)(=O)c2cn(C)c3cc(N4CCCC4)c(F)cc3c2=O)c(C)c1	86%[activator]	-3%
C(#Cc1cc(-c2ccccc2)nc(-c2ccccc2)c1)c1ccccc1	8%	7%
Cc1ccccc1NC(=O)CSC1=C(C#N)C(c2ccccc2F)CC(=O)N1 (stereo not given)	10%	53%[activator]
CC(C)c1nc(N2CCN(C(=O)C(=O)NCCO)CC2)c(C#N)c2c1CCCC2	4%	-15%
O=C(NCC(c1cccnc1)N1CCN(Cc2ccccc2)CC1)C(=O)Nc1cccc(Cl)c1 (stereo not given)	-11%	-10%
O=Cc1ccc(OCc2ccccc2Cl)c(Cl)c1	68%[activator]	452%[activator]
Cc1ccc(C)c(Cn2c(=O)n(Cc3ccccc3)c(=O)c3c2c2cc(C)ccc2n3C)c1	-3%	-13%
O=C(COc1ccc(Cl)cc1)NCc1ccc(-c2nn3cnnc3s2)cc1	17%	30%
CCOC(=O)c1c(C)c(C(=O)Nc2cccc(Cl)c2C)c(C)n1C	15%	53%[activator]
CSc1nc2n(n1)C(c1ccccc1Cl)C1=C(CCCC1=O)N2 (stereo not given)	17%	27%
Cc1ccsc1C(=O)Nc1cccc2c1CCCC2	35%	87%[activator]
Cc1ccc2nc3c(cc(C#N)c(=O)n3-c3nnc(SCc4ccccc4)s3)c(=O)n2c1	10%	10%
O=C(CCCc1ccccc1)NC1CC(=O)N(c2ccc(Cl)cc2)C1 (stereo not given)	17%	15%
CC(Sc1nnc(-c2ccccc2F)n1C1CC1)c1ccc(F)cc1 (stereo not given)	-9%[1.06 µM]	u
COc1ccc(C2=NC(c3ccccc3)=Nc3ccc(C)cc3N2)cc1	58%[activator]	237%[activator]
CC(C)(C)OC(=O)N1CCC(c2c(C(=O)Nc3ccc4c(c3)OCCO4)cnn2-c2ccccc2)CC1	11%	3%
Cc1cc(=O)oc2cc(OC(=O)[C@@H](NC(=O)OC(C)(C)C)C(C)C)c(Cl)cc12	-3%	6%
COc1cc(OC)c(NC(=O)CCCn2nc(C)c3c(C)n(-c4ccccc4)nc3c2=O)cc1Cl	1%	15%
COC(=O)c1cc2oc3ccccc3c2n1Cc1nc(-c2ccccc2Cl)oc1C	13%	23%
CCOc1ccc(C(=O)Nc2ccc(C(=O)OCc3cc(=O)n4c(C)csc4n3)cc2)cc1	5%	-28%
COc1cccc(C(=O)NCC(c2ccc(N(C)C)cc2)N2CCOCC2)c1OC (stereo not given)	9%	0%
Cc1ccc([N+](=O)[O-])cc1S(=O)(=O)N1CCn2cccc2C1c1ccccc1F (stereo not given)	-8%	-8%
CC(C)CCC(C)NC(=O)c1ccc(CNC(N)=O)cc1 (stereo not given)	1%	0%
Cc1ccc2nc(Nc3nc(CSc4ccc(Cl)cc4)cc(=O)[nH]3)nc(C)c2c1	2%	0%
CC(C)c1ccc(NS(=O)(=O)c2ccc3[nH]cc(C(=O)NC4CCCCC4)c(=O)c3c2)cc1	178%[activator]	35%[activator]
O=C(COc1ccc(Br)cc1)OCCCC(=O)c1ccccc1	-11%[1.06 µM]	3%
CCC(=O)N1CCc2cc(Br)cc(S(=O)(=O)NCCc3cccc(C)c3)c21	210%[activator]	-10%
Cc1ccc2occ(C3CC(=O)Nc4c3c(C)nn4-c3ccc(=O)[nH]n3)c(=O)c2c1 (stereo not given)	u	u
Cc1ccc(Cn2nnc3sc4c(c3c2=O)CCC(C)C4)cc1 (stereo not given)	-4%	-15%
COc1ccc(Nc2oc(/C=C/c3ccc(F)cc3)nc2C#N)cc1	-1%&17%	63%&62%[activator]
COC(=O)c1ccc(NC(=O)CC2C(=O)N(c3ccccc3)C(=O)N2C2CCCC2)cc1 (stereo not given)	0%	-8%
Cc1nc2ccccc2c(C(=O)NO)[n+]1[O-]	-2%	-1%
O=S(=O)(c1ccc(Cl)cc1)N1CCN(c2nc(-c3ccccc3)nc3ccccc23)CC1	-8%	-14%
Cc1cc(C)cc(NC(=O)C2CCN(S(=O)(=O)c3c(C)noc3/C=C/c3ccco3)CC2)c1	-11%	-2%
Cc1ccc(NC(=O)CSc2ncc(-c3ccc(Cl)cc3)o2)cc1C	-8%	-6%
CC1CCCCN1CCNC(=O)C1CCN(c2nc3cccnc3s2)CC1 (stereo not given)	-4%	3%
O=C(COc1ccc(Cl)cc1Cl)Nc1ccc2oc(-c3cccnc3)nc2c1	6%	15%
CCN1CCCC1CNC(=O)C1CCN(S(=O)(=O)c2ccc3c(ccn3CC)c2)CC1 (stereo not given)	53%[activator]	-3%
COc1ccc(NC(=O)N(CCC(C)C)C(C)c2cccs2)c(OC)c1 (stereo not given)	26%	-17%
Cc1ccc(CN(C)C(=O)c2cc(-c3ccncc3)nc3ccccc23)o1	32%[activator]	-14%
CCOC(=O)c1cnc2ccc(C)cc2c1Nc1cccc([N+](=O)[O-])c1	-20%	-20%
COc1ccc(CNC(=O)c2cc3c(-c4ccccc4F)nn(C)c3s2)cc1	42%[activator]	5%
CCCCN1C(=O)C(O)(c2c(C)[nH]c3ccccc23)c2ccccc21 (stereo not given)	-7%	13%
Cc1cccc2c(=O)c(-c3ccccc3)c(NC(=O)CC(C)C)oc12	4%	17%
O=C(Cc1ccc2ccccc2c1)Nc1cnc2ccccc2c1	20%	25%
O=S(=O)(c1ccc2c(c1)OCCO2)c1nc(-c2ccco2)oc1NC1CC1	278%[activator]	-4%
Cc1cc(C)n2nc(CNS(=O)(=O)c3ccccc3)nc2n1	-17%	0%
CCOc1cc(/C=C2\NC(=O)NC2=O)cc(Cl)c1OCC	3%	13%
Cc1ccccc1Cn1cc(CCC(=O)NCc2cccc(Br)c2)c2ccccc21	-17%	-11%
Cc1cc2nc(C(=O)Nc3ccc(Br)cc3)c(N3CCOCC3)nc2cc1C	-7%	17%
Next results follow:
SMILES	2A Renilla	2A firefly
CNC(=S)NCCSCc1ccccc1F	34%[activator]	0%
O=C(O)CCC(=O)N1CCc2cc(S(=O)(=O)NCc3ccc(F)cc3)ccc21	79%[activator]	-8%
COC(=O)c1ccc(NC(=O)c2nn(C)c3c2COc2ccccc2-3)cc1	-22%	-23%
COc1ccc(OC)c(NC(=O)c2cccc3c2C(=O)N(C2CCCCC2)C3)c1	-2%	-11%
CCOc1ccc(NC(=O)N2CCOc3ccccc32)cc1	-9%	104%[activator]
CCCC1=C(C(=O)OCC)C(c2cccc(OC)c2)C(C#N)=C(N)O1 (stereo not given)	-1%	3%
COC(=O)C(Cl)(C(=O)OC)C(OC)(C(=O)OC)C(=O)OC	-7%	7%
Fc1ccc(-n2cc(-c3ccccc3)c3c(NCCc4ccccc4)ncnc32)cc1	4%	-11%

In a second layout: entries from further up.
mol | 2A Renilla | 2A firefly
COC(=O)c1ccc(NC(=O)c2nn(C)c3c2COc2ccccc2-3)cc1 | -22% | -23%
O=C(O)CCC(=O)N1CCc2cc(S(=O)(=O)NCc3ccc(F)cc3)ccc21 | 79%[activator] | -8%
